A1 apoptosis 2 = blocks A1, raising caspase activity; MEF A1-2A-BIM cells, caspase-Glo luminescence, 3 h; percent of clofoctol response, DMSO zero; caspase activation, % (concentration not given with the values); 24,000 tested, under 10 active; AID 2465; in the data active = caspase activation above about 5.9%;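 also: wells of about 30 µL received 50 nL stock; the first replicate is given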
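Material: mouse embryonic fibroblasts co-expressing A1 and BIM (A1-2A-BIM), primed for A1 dependence / Quantity: 2500 cells/well / Buffer or medium: RPMI-1640 growth medium with 10% FBS / Doses: 50 nL compound per well, pinned / Schedule: 3 h compound exposure at 37 °C / Signal: Caspase-Glo luminescence (DEVD substrate) / Measure: Caspase-3/7 activation, seen as rise in luminescence signal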
The depositor's hits bear a star. An excerpt (hit frequency here may not be typical).

SMILES	A1 apoptosis 2
COc1ccc(CN(C)C[C@H]2Oc3ccc(NC(=O)Nc4ccc(OC)cc4)cc3CC(=O)N([C@H](C)CO)C[C@H]2C)cc1	1.8
Cc1noc(C)c1S(=O)(=O)N(C)C[C@@H]1OCCCC[C@@H](C)Oc2ccc(NS(=O)(=O)c3cccs3)cc2C(=O)N([C@@H](C)CO)C[C@H]1C	-0.2
C[C@H](O)[C@H](O)[C@@H](O)[C@@H](O)/C=N/NC(=O)c1ccccn1	0.1
COC(=O)c1ccc([C@@H]2C=C(C(=O)O)O[C@H](OCCCCO)C2)cc1	-0.4
COC(=O)c1c2oc(c1C(=O)OC)C(=O)N(C)Cc1cn(nn1)C[C@@H](C)NC(=O)N[C@H](CO)CC2	-0.5
C[C@H](CO)N1C[C@H](C)[C@@H](CN(C)C(=O)NC2CCCCC2)OCCCC[C@H](C)Oc2ccc(NC(=O)Nc3ccccc3)cc2C1=O	0.4
C[C@@H]1CN([C@H](C)CO)C(=O)Cc2cc(NC(=O)c3ccncc3)ccc2O[C@H]1CN(C)S(=O)(=O)c1cccs1	0.4
C[C@H](CO)N1C[C@H](C)[C@H](CN(C)CC2CC2)Oc2c(NC(=O)c3ccc(-c4nccs4)cc3)cccc2C1=O	0.1
CC(C)NC(=O)N(C)C[C@H]1OCc2cnnn2CCCC(=O)N([C@H](C)CO)C[C@H]1C	-0.5
COc1ccc(S(=O)(=O)N(C)C[C@H]2Oc3c(NS(=O)(=O)c4ccc(C)cc4)cccc3C(=O)N([C@@H](C)CO)C[C@@H]2C)cc1	0.4
COc1ccc(CN(C)C[C@@H]2OCCCC[C@H](C)Oc3ccc(NS(=O)(=O)c4ccc(Cl)cc4)cc3C(=O)N([C@H](C)CO)C[C@H]2C)cc1	0.0
C[C@@H]1CCCCO[C@H](CN(C)C)[C@H](C)CN([C@H](C)CO)C(=O)c2cc(NC(=O)c3ccncc3)ccc2O1	0.9
Cc1ccc(S(=O)(=O)N(C)C[C@H]2Oc3ccc(NS(=O)(=O)c4c(C)noc4C)cc3C(=O)N([C@@H](C)CO)C[C@@H]2C)cc1	-0.9
C[C@@H]1CN([C@H](C)CO)C(=O)c2cc(NC(=O)CCCN(C)C)ccc2O[C@H]1CN(C)Cc1ccc(C(F)(F)F)cc1	1.6
C[C@@H]1CCCCO[C@@H](CN(C)C(=O)Nc2ccc(C(F)(F)F)cc2)[C@H](C)CN([C@H](C)CO)C(=O)c2cc(NC(=O)Nc3cccc4ccccc34)ccc2O1	-0.1
C[C@H]1CN([C@@H](C)CO)C(=O)c2cccc(NC(=O)c3cnccn3)c2O[C@H]1CN(C)Cc1ccncc1	0.2
CNC[C@@H]1Oc2ccc(NC(=O)C3CCCCC3)cc2C(=O)N([C@H](C)CO)C[C@H]1C	-1.0
C[C@@H]1CN([C@@H](C)CO)C(=O)Cc2cc(NS(C)(=O)=O)ccc2O[C@@H]1CN(C)Cc1ccc(C(=O)Nc2ccccc2N)cc1	0.1
C[C@@H]1CN([C@@H](C)CO)C(=O)Cc2cc(NC(=O)c3ccncc3)ccc2O[C@H]1CN(C)S(=O)(=O)c1ccc(F)cc1	0.4
C[C@@H]1CCCCO[C@@H](CN(C)C(=O)c2ccccc2)[C@@H](C)CN([C@H](C)CO)C(=O)c2cc(NS(=O)(=O)c3ccccc3)ccc2O1	0.3
Cc1noc(C)c1NC(=O)Nc1cccc2c1O[C@@H](CN(C)C)[C@H](C)CN([C@@H](C)CO)C2=O	0.4
CN(C)CCCNC(=O)[C@@]1(c2ccc([N+](=O)[O-])cc2)CC(=O)N(CC23CC4CC(CC(C4)C2)C3)[C@@H]1c1ccc(CO)cc1	-0.5
Cc1noc(C)c1S(=O)(=O)N(C)C[C@@H]1Oc2ccc(NC(=O)Cn3cnnn3)cc2CC(=O)N([C@@H](C)CO)C[C@H]1C	-0.9
C[C@H](CO)N1C[C@H](C)[C@H](CN(C)C)OCCCC[C@H](C)Oc2ccc(NC(=O)Nc3ccc4c(c3)OCO4)cc2C1=O	1.4
C[C@H]1CN([C@@H](C)CO)C(=O)c2cccc(NS(=O)(=O)c3cccs3)c2O[C@@H]1CN(C)C(=O)Nc1cccc2ccccc12	-0.2

Carrying on:
SMILES	A1 apoptosis 2
COc1ccc(S(=O)(=O)Nc2ccc3c(c2)CC(=O)N([C@@H](C)CO)C[C@@H](C)[C@@H](CN(C)CC2CCCCC2)O3)cc1	-0.7
CC(C)NC(=O)Nc1ccc2c(c1)C(=O)N([C@@H](C)CO)C[C@H](C)[C@@H](CN(C)C(=O)C1CCCCC1)OCCCC[C@H](C)O2	0.1
Cc1noc(C)c1NC(=O)N(C)C[C@@H]1Oc2ccc(NS(=O)(=O)c3ccc(Cl)cc3)cc2C(=O)N([C@@H](C)CO)C[C@H]1C	0.8
C[C@H]1CN([C@@H](C)CO)C(=O)c2cccc(NC(=O)Nc3ccc4c(c3)OCO4)c2O[C@H]1CN(C)Cc1ccc(C(F)(F)F)cc1	0.3
C[C@H](CO)N1C[C@H](C)[C@H](CN(C)Cc2ccncc2)Oc2c(NC(=O)C3CC3)cccc2C1=O	-0.3
C[C@@H]1CN([C@H](C)CO)C(=O)Cc2cc(NC(=O)C3CCCCC3)ccc2O[C@H]1CN(C)C(=O)Nc1cccc2ccccc12	0.5
COc1ccc(NC(=O)Nc2ccc3c(c2)C(=O)N([C@H](C)CO)C[C@H](C)[C@@H](CN(C)C(=O)NC2CCCCC2)OCCCC[C@H](C)O3)cc1	0.1
Cc1noc(C)c1S(=O)(=O)Nc1ccc2c(c1)C(=O)N([C@H](C)CO)C[C@@H](C)[C@H](CN(C)Cc1ccc(C(F)(F)F)cc1)O2	1.2
Cc1noc(C)c1S(=O)(=O)Nc1ccc2c(c1)C(=O)N([C@H](C)CO)C[C@H](C)[C@H](CN(C)S(=O)(=O)c1ccc(Cl)cc1)OCCCC[C@@H](C)O2	0.4
CNC[C@H]1OCCCC[C@H](C)Oc2ccc(N)cc2C(=O)N([C@@H](C)CO)C[C@@H]1C	-0.1
Cc1ccc(S(=O)(=O)Nc2ccc3c(c2)C(=O)N([C@H](C)CO)C[C@H](C)[C@H](CN(C)C(=O)CCCN(C)C)OCCCC[C@H](C)O3)cc1	0.4
Cc1noc(C)c1NC(=O)N(C)C[C@@H]1Oc2c(NC(=O)Nc3ccc(C(F)(F)F)cc3)cccc2C(=O)N([C@H](C)CO)C[C@H]1C	-0.5
COc1ccc(NC(=O)N(C)C[C@@H]2Oc3ccc(NC(=O)CCN4CCOCC4)cc3C(=O)N([C@H](C)CO)C[C@@H]2C)cc1	0.0
CNC[C@H]1Oc2c(NS(C)(=O)=O)cccc2C(=O)N([C@@H](C)CO)C[C@@H]1C	-0.6
C[C@@H]1CN([C@H](C)CO)C(=O)c2cccc(NC(=O)c3ccc(-c4nccs4)cc3)c2O[C@@H]1CN(C)CC1CC1	-2.8
C[C@@H]1CCCCO[C@@H](CN(C)C(=O)c2ccncc2)[C@H](C)CN([C@@H](C)CO)C(=O)c2cc(NC(=O)CCC(F)(F)F)ccc2O1	-0.2
Cc1noc(C)c1S(=O)(=O)N(C)C[C@H]1Oc2ccc(NS(=O)(=O)c3cccs3)cc2CC(=O)N([C@H](C)CO)C[C@H]1C	2.1
COc1ccc(/C=N/NC(=O)CCCCCC(=O)O)c(O)c1	-0.4
C[C@H](CO)N1C[C@H](C)[C@@H](CN(C)Cc2ccccc2)OCCCC[C@H](C)Oc2ccc(NS(=O)(=O)c3ccc(F)cc3)cc2C1=O	0.8
C[C@@H]1CN([C@@H](C)CO)C(=O)c2cc(NC(=O)NC3CCCCC3)ccc2O[C@H]1CN(C)Cc1ccc2c(c1)OCO2	2.3
C[C@@H]1CCCCO[C@H](CN(C)C(=O)Nc2ccccc2)[C@H](C)CN([C@@H](C)CO)C(=O)c2cc(NC(=O)Cc3ccccc3)ccc2O1	-0.9
C[C@H](CO)N1C[C@H](C)[C@@H](CN(C)S(=O)(=O)c2cccs2)Oc2ccc(NC(=O)CCC(F)(F)F)cc2C1=O	0.6
C[C@H](CO)N1C[C@H](C)[C@@H](CN(C)C(=O)c2ccccc2)OCc2cnnn2CCCC1=O	0.4
C[C@H](CO)N1C[C@H](C)[C@H](CN(C)S(=O)(=O)c2ccc(F)cc2)Oc2ccc(NS(=O)(=O)c3cccs3)cc2CC1=O	-0.9
C[C@@H]1CN([C@H](C)CO)C(=O)CCCn2cc(nn2)CO[C@@H]1CN(C)Cc1cccc2c1OCCCO2	-0.6

Other entries
SMILES	A1 apoptosis 2
C[C@H](CO)N1C[C@H](C)[C@H](CN(C)Cc2ccc(C(=O)O)cc2)OCCCC[C@H](C)Oc2ccc(NC(=O)CCC(F)(F)F)cc2C1=O	-0.3
C[C@@H]1CN([C@@H](C)CO)C(=O)c2cc(NC(=O)Nc3ccc(F)cc3)ccc2O[C@@H](C)CCCCO[C@@H]1CN(C)S(=O)(=O)c1ccc(F)cc1	0.3
CNC[C@H]1Oc2ccc(NC(=O)Nc3ccc4c(c3)OCO4)cc2C(=O)N([C@@H](C)CO)C[C@@H]1C	-0.4
C[C@@H]1CN([C@H](C)CO)C(=O)Cc2cc(NC(=O)Nc3ccc4c(c3)OCO4)ccc2O[C@@H]1CN(C)Cc1ccc(C(=O)Nc2ccccc2N)cc1	-1.7
Cc1noc(C)c1S(=O)(=O)N(C)C[C@H]1Oc2ccc(NC(=O)Cn3cnnn3)cc2CC(=O)N([C@@H](C)CO)C[C@@H]1C	-0.9
COc1ccc(NC(=O)Nc2cccc3c2O[C@H](CN(C)Cc2ccc(Oc4ccccc4)cc2)[C@H](C)CN([C@@H](C)CO)C3=O)cc1	-0.2
CNC[C@@H]1Oc2ccc(NC(=O)C3CCCCC3)cc2C(=O)N([C@@H](C)CO)C[C@H]1C	-1.4
Cc1ccc(S(=O)(=O)Nc2ccc3c(c2)C(=O)N([C@@H](C)CO)C[C@@H](C)[C@H](CN(C)C(=O)CCC(F)(F)F)OCCCC[C@@H](C)O3)cc1	-0.7
CC(C)NC(=O)Nc1ccc2c(c1)C(=O)N([C@H](C)CO)C[C@@H](C)[C@H](CN(C)Cc1ccc3c(c1)OCO3)OCCCC[C@H](C)O2	1.4
C[C@@H]1CN([C@H](C)CO)C(=O)c2cc(NS(=O)(=O)c3cn(C)cn3)ccc2O[C@@H]1CN(C)C(=O)NC1CCCCC1	-1.3
NC(=O)[C@H]1[C@@H]2C(=O)O[C@@H](c3ccccc3)[C@@H](c3ccccc3)N2[C@@H](c2ccccc2OCCO)[C@]12C(=O)Nc1ccccc12	-1.5
COc1ccc(S(=O)(=O)Nc2cccc3c2O[C@@H](CN(C)S(C)(=O)=O)[C@@H](C)CN([C@H](C)CO)C3=O)cc1	-0.4
Cc1ccc(S(=O)(=O)Nc2ccc3c(c2)C(=O)N([C@@H](C)CO)C[C@H](C)[C@@H](CN(C)C(=O)Nc2cccc4ccccc24)O3)cc1	-1.2
Cc1noc(C)c1NC(=O)Nc1ccc2c(c1)CC(=O)N([C@@H](C)CO)C[C@@H](C)[C@@H](CN(C)C(=O)Nc1ccc3c(c1)OCO3)O2	-0.5
C[C@H](CO)N1C[C@H](C)[C@H](CN(C)Cc2ccncc2)Oc2ccc(NC(=O)CCC(F)(F)F)cc2C1=O	0.0
CC(C)NC(=O)N(C)C[C@H]1OCCCC[C@@H](C)Oc2ccc(NS(=O)(=O)c3ccc(F)cc3)cc2C(=O)N([C@@H](C)CO)C[C@@H]1C	0.0
Cc1noc(C)c1S(=O)(=O)N(C)C[C@@H]1Oc2ccc(NC(=O)CCCN(C)C)cc2C(=O)N([C@@H](C)CO)C[C@@H]1C	-0.3
Cc1noc(C)c1NC(=O)Nc1ccc2c(c1)C(=O)N([C@@H](C)CO)C[C@@H](C)[C@@H](CN(C)Cc1ccc3c(c1)OCO3)OCCCC[C@@H](C)O2	-0.7
C[C@H]1CN([C@@H](C)CO)C(=O)c2cccc(NC(=O)C3CCCCC3)c2O[C@@H]1CN(C)CC1CC1	-1.2
Cc1cc(C(=O)Nc2cccc3c2O[C@@H](CN(C)CC2CC2)[C@H](C)CN([C@@H](C)CO)C3=O)n(C)n1	-1.0
C[C@@H]1CN([C@H](C)CO)C(=O)c2cccc(NS(=O)(=O)c3cn(C)cn3)c2O[C@@H]1CN(C)S(=O)(=O)c1ccccc1	-1.8
Cc1noc(C)c1S(=O)(=O)Nc1ccc2c(c1)C(=O)N([C@H](C)CO)C[C@H](C)[C@@H](CN(C)C(=O)NC1CCCCC1)O2	0.7

Filtered by structure, the compounds so far containing an aryl methoxy group
SMILES	A1 apoptosis 2
COc1ccc(CN(C)C[C@H]2Oc3ccc(NC(=O)Nc4ccc(OC)cc4)cc3CC(=O)N([C@H](C)CO)C[C@H]2C)cc1	1.8
COc1ccc(S(=O)(=O)N(C)C[C@H]2Oc3c(NS(=O)(=O)c4ccc(C)cc4)cccc3C(=O)N([C@@H](C)CO)C[C@@H]2C)cc1	0.4
COc1ccc(CN(C)C[C@@H]2OCCCC[C@H](C)Oc3ccc(NS(=O)(=O)c4ccc(Cl)cc4)cc3C(=O)N([C@H](C)CO)C[C@H]2C)cc1	0.0
COc1ccc(S(=O)(=O)Nc2ccc3c(c2)CC(=O)N([C@@H](C)CO)C[C@@H](C)[C@@H](CN(C)CC2CCCCC2)O3)cc1	-0.7
COc1ccc(NC(=O)Nc2ccc3c(c2)C(=O)N([C@H](C)CO)C[C@H](C)[C@@H](CN(C)C(=O)NC2CCCCC2)OCCCC[C@H](C)O3)cc1	0.1
COc1ccc(NC(=O)N(C)C[C@@H]2Oc3ccc(NC(=O)CCN4CCOCC4)cc3C(=O)N([C@H](C)CO)C[C@@H]2C)cc1	0.0
COc1ccc(/C=N/NC(=O)CCCCCC(=O)O)c(O)c1	-0.4
COc1ccc(NC(=O)Nc2cccc3c2O[C@H](CN(C)Cc2ccc(Oc4ccccc4)cc2)[C@H](C)CN([C@@H](C)CO)C3=O)cc1	-0.2
COc1ccc(S(=O)(=O)Nc2cccc3c2O[C@@H](CN(C)S(C)(=O)=O)[C@@H](C)CN([C@H](C)CO)C3=O)cc1	-0.4

High-throughput results deposited in PubChem by Broad Institute.
